KCNQ2 enhance: potentiators of rat KCNQ2 potassium channel; Potassium voltage-gated channel subfamily KQT member 2 (Rattus norvegicus), O88943; CHO-K1 KCNQ2, FluxOR thallium flux fluorescence; stronger effect = higher value; B-score at 10 µM; actives 0.54% (n = 310,000);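 active = fluorescence ratio B-score at least 3 SD of library B-scores, with initial fluorescence B-score within 3 SD, cut at about 5.3 in these data; same plate scores as AID 2156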;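 also: B-score of peak minus minimum over baseline fluorescence ratio after K+ and Tl+ stimulus; positive B-score means potentiation of KCNQ2 with more thallium influx and brighter signal; only the inactives scoring about 0 or higher are listed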
Target sequence (O88943 whole entry, looked up): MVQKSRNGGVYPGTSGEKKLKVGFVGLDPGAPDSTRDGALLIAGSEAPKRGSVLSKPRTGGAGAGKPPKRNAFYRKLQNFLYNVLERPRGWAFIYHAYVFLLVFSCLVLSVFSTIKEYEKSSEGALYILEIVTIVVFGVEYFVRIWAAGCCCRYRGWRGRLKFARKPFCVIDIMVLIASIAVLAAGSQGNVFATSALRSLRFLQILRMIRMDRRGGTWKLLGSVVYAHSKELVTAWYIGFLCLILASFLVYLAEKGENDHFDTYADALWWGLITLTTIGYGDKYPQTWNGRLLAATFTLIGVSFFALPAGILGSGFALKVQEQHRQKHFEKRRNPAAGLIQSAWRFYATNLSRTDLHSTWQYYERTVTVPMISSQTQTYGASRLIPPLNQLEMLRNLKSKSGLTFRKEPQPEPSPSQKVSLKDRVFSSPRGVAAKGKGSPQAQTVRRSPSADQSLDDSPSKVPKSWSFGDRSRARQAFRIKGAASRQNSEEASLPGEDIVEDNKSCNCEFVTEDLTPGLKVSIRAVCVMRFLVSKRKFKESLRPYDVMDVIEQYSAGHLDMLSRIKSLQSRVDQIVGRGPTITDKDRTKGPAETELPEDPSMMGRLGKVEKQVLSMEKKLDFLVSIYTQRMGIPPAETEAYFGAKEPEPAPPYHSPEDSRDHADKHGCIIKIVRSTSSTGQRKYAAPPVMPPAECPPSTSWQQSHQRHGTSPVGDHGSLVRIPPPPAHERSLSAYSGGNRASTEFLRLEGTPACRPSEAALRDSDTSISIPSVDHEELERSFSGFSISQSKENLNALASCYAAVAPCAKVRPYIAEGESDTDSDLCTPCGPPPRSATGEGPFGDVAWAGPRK
KCNQ2 enhance baseline: recorded beside KCNQ2 enhance, whose call it bears; B-score; compound at 10 µM; measured here: initial fluorescence intensity artifact check;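 brightness before thallium and not channel activity; 0 = typical well and far values either way flag optical interference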
An asterisk follows results filed as active. These rows are one share of the data. The share of hits here may be higher or lower than overall.

Preview (3 entries):
SMILES	KCNQ2 enhance	KCNQ2 enhance baseline
CC(C)[C@H](NC(=O)[C@@H]1Cc2c([nH]c3ccccc23)C2c3ccccc3C(=O)N21)C(=O)N1CCC[C@@H]1C(=O)O (some centres undefined)	0.67	1.1
Cc1oc(-c2ccc(Cl)cc2)nc1CS(=O)CC(=O)NCCCN(C)C1CCCCC1 (centres undefined)	0.7	-0.03
CCN(CC)CCNC(=O)C12CC3CC(C)(CC(C)(C3)C1)C2	0.67	-0.66

The listing (from the top)
SMILES	KCNQ2 enhance	KCNQ2 enhance baseline
CC(C)[C@H](NC(=O)[C@@H]1Cc2c([nH]c3ccccc23)C2c3ccccc3C(=O)N21)C(=O)N1CCC[C@@H]1C(=O)O (some centres undefined)	0.67	1.1
Cc1oc(-c2ccc(Cl)cc2)nc1CS(=O)CC(=O)NCCCN(C)C1CCCCC1 (centres undefined)	0.7	-0.03
CCN(CC)CCNC(=O)C12CC3CC(C)(CC(C)(C3)C1)C2	0.67	-0.66
CC(=O)c1ccc(NC(=O)C2=CC(c3ccc4c(c3)OCO4)=NS(=O)(=O)N2C)cc1	1.9	-0.03
CC1CCN(c2ncnc3ccccc23)CC1	1.8	-0.67
CC(C)(C)OC(=O)NCC(=O)NCC(=O)OCc1ccccc1	0.49	0.4
Cc1ccccc1OCC(=O)O/N=C(\N)Cc1ccc(Cl)cc1	0.02	0.21
Cc1onc(-c2ccccc2Cl)c1C(=O)NC1CCCCCC1	0.05	2.2
COc1cccc(/C=C/c2ccccn2)c1O	0.42	0.97
O=C1CCSc2cccc3cccc(c23)N1	0.01	0.48
CC1=C(C)CC(C(=O)NC2CCN(C(C)C)CC2)C(C(=O)O)C1 (centres undefined)	0.46	1.6
Cc1ccc(NC(=O)c2ccc(OC(=O)CCN3C(=O)c4ccccc4C3=O)cc2)cc1	0.17	0.03
S=c1[nH]c2ccc3ccccc3c2[nH]1	0.65	1
COc1ccc(/C=N/N(C)C2=NS(=O)(=O)c3ccccc32)cc1	0.89	0.98
Cc1ccc(NC(=O)c2cccnc2)c([N+](=O)[O-])c1	1	-1.9
Cc1oc2nc(SCC(=O)NC3CCCCC3)nc(N)c2c1C	2	-0.3
N#C/C(=C\c1c(N2CCCCC2)nc2ccccn2c1=O)C(=O)NCc1ccco1	1.2	-1.3
Cc1ccc(-c2nn(C)c(=O)c3ccccc23)cc1CNC(=O)c1ccco1	0.06	-0.03
CCC(=O)O[C@@H]1CC(=O)O[C@H](C)CC=CC=C[C@@H](O)[C@H](C)C[C@H](CC=O)[C@H](O[C@H]2O[C@H](C)[C@@H](O[C@H]3C[C@@](C)(O)[C@@H](OC(=O)CC)[C@H](C)O3)[C@H](N(C)C)[C@H]2O)[C@H]1OC	0.09	1.7
CCCNC(=O)/C(C#N)=C1\N=C(NC(=O)c2ccco2)c2ccccc21	0.16	0.23
CCC(=O)NC(c1ccc(N(C)C)cc1)c1c(O)ccc2ccccc12 (centres undefined)	5	-1
CCOC(=O)Cn1c(-c2ccccc2)cc(SC)c(C#N)c1=O	0.14	-1.2
COC/C=C/C1=CC2=CC(=O)C(C)(OC(=O)c3cnc4ccccc4n3)C(=O)C2=CN1CCCCO (centres undefined)	0.54	1.3
O=C(CSc1ccc(-c2cccs2)nn1)N1CCCCCC1	1.8	-1.3
CCCCCC1=NN2C(=O)CC(=O)N=C2S1	1.5	-2.3
COc1ccc(COC(=O)CCS(=O)(=O)c2ccc(C)cc2)cc1F	0.97	-1.1
CCn1c(SCC(O)c2ccccc2)nnc1-c1ccccc1 (centres undefined)	0.68	2.5
COc1cc(NC(=O)Cc2c(C(=O)O)n(C)c3ccccc23)cc(OC)c1OC	2.9	-0.6
Cc1nnsc1C(=O)Nc1ccccc1	1	0.03
COc1ccc(N2CCN(C(CNC(=O)c3ccc4c(c3)OCO4)c3ccco3)CC2)cc1 (centres undefined)	1.6	0.31
CCc1ccc(NC(=O)CSc2n[nH]c(C)c2[N+](=O)[O-])cc1	0.8	0.15
CS(=O)(=O)N1CCN(C(=O)Nc2ccccc2)CC1	0.31	0.55
CCC(C)N(C(=O)C(F)(F)F)C(C(=O)NC1CCCCC1)c1ccncc1 (centres undefined)	0.54	-0.82
Cc1cc(C)n2nc(C(=O)NCc3ccccc3)nc2n1	1.3	1.6
CCC(CC)N1CCN(CCc2ccccc2)C(CCO)C1 (centres undefined)	0.69	0.1
CCN1CCCc2cc(CN(CCN3CCOCC3)C(=S)Nc3ccccc3OC)ccc21	0.83	-0.88

A stretch of the results above, as a working copy:
SMILES	KCNQ2 enhance	KCNQ2 enhance baseline
CCC(C)N(C(=O)C(F)(F)F)C(C(=O)NC1CCCCC1)c1ccncc1 (centres undefined)	0.54	-0.82
Cc1cc(C)n2nc(C(=O)NCc3ccccc3)nc2n1	1.3	1.6
CCC(CC)N1CCN(CCc2ccccc2)C(CCO)C1 (centres undefined)	0.69	0.1
CCN1CCCc2cc(CN(CCN3CCOCC3)C(=S)Nc3ccccc3OC)ccc21	0.83	-0.88

More results:
SMILES	KCNQ2 enhance	KCNQ2 enhance baseline
COC(=O)c1c(N)sc(C(=O)N2CCOCC2)c1C	0.1	-0.62
Cc1ccc(-c2nc(C)sc2CC(=O)NCc2ccco2)cc1	0.44	0.85
CCOc1cc2c(C#N)c(N(CC)CC)nc(N)c2c(N)n1	1.1	0.67
COc1cccc(NC(=O)CSCc2cc(=O)n3nc(C4CC4)sc3n2)c1	0.54	-0.87
CC(C)S(=O)(=O)C/C(N)=N/OS(=O)(=O)c1ccc(Cl)cc1	0.21	-0.03
COc1cc(NC(=O)C2CCN(c3cnccn3)CC2)cc(OC)c1OC	0.97	-1
CC1CCN(C(=O)c2cc(S(=O)(=O)N3CCCCC3)c[nH]2)CC1	1.7	-0.4
COc1ccccc1N1CCN(C(c2cccs2)C(C)NS(=O)(=O)c2ccccc2)CC1 (centres undefined)	0.82	-1.4
COCCC(=O)NC12CC3CC(CC(C3)C1)C2	0.97	-1.5
CCn1c(=N)n(CC(=O)c2ccc(OC)c(OC)c2)c2ccccc21	0.01	0.33
CC(=O)N1c2c(cc(Br)cc2S(=O)(=O)N2CCN(c3ccccc3F)CC2)CC1C (centres undefined)	0.1	3.2
Cc1ccc(Nc2ncnc(N)n2)cc1	1.9	1.1
Cc1ccc(NC(=S)NCC(C)CSc2ccc(Cl)cc2)cc1 (centres undefined)	13*	3.7*
NNC(=O)Cn1c(-c2nonc2N)nc2ccccc21	0.06	-1
c1n[nH]c(NCc2ccc3c(c2)OCO3)n1	2.3	-0.65
C=CCNc1nc(N2CCCC2)nc2ccccc12	1.8	-0.57
O=c1[nH]c(CN2CCOCC2)nc2cc(Cl)ccc12	1.2	-0.2
CC(=O)NC(CC(=O)NCCCn1ccc2ccccc21)c1ccccc1 (centres undefined)	2	-0.55
CN(C)S(=O)(=O)c1ccc(S(=O)(=O)N(CC(=O)Nc2ccccc2)Cc2ccco2)cc1	1.3	-0.69
COc1ccc(N(CC(=O)O)S(=O)(=O)c2cccnc2)cc1	0.02	1.4
CCOC(=O)C1=C(C)N=c2s/c(=C3/C(=O)Nc4ccccc43)c(=O)n2C1c1ccc(C)cc1 (centres undefined)	1.3	0.42
COc1ccccc1NS(=O)(=O)c1cc(NC(=O)c2sccc2C)ccc1N1CCOCC1	0.08	-0.06
COC(=O)c1cn(C(=O)/C=C/c2ccc(OC)c(OC)c2)c2ccccc12	0.04	-0.63
Cn1c(SCc2ccc(F)cc2)nnc1-c1ccccn1	0.01	-0.28
NC(=O)c1ccc(S(=O)(=O)N2CCSCC2)cc1	0.12	-0.21
Cc1ccc(NC(=O)CCCn2c(=O)oc3ccccc32)c(O)c1	0.71	-0.51
O=S(=O)(c1ccc(Cl)cc1)N1CCC(N2CCCCCC2)CC1	0.55	-1.5
O=[N+]([O-])c1cccc(Nc2c([N+](=O)[O-])ccc3nonc23)c1	0.33	-0.13
C/C(CC(=O)Nc1cccnc1)=N\NC(=O)C(=O)Nc1cccc(C)c1	0.45	0.45
CCc1c(C)sc2nc(SCC(=O)Nc3cc(C)on3)n(CCOC)c(=O)c12	0.01	2.8
COc1ccc(C(=O)NCC(=O)OCC(=O)c2ccc3c(c2)NC(=O)CO3)cc1OC	0.78	1.7
C=CCSc1nc(C)c(CC(=C)C)c(=O)[nH]1	0.08	1.3
CCNC(=O)/C(C#N)=C/c1c(N2CC(C)OC(C)C2)nc2ccccn2c1=O (centres undefined)	1.8	1.2
CN(C(=O)c1cccc(NC(=O)c2cccs2)c1)c1ccccc1	1.3	0.27
CCc1ccc(C(=O)COC(=O)CNC(=O)CNC(=O)Cc2ccccc2)cc1	0.04	0.18
O=C1NC(=S)N(c2cccc(Cl)c2)C12CCCCC2	0.44	0.24
CCn1c(C(C)NS(=O)(=O)c2ccc(Cl)cc2)n[nH]c1=S (centres undefined)	0.77	-1.1
CSc1ccc(CN(C)Cc2nc3cc(C(F)(F)F)ccc3c(=O)[nH]2)cc1	0.09	0.87
CC(=O)Nc1ccc(CN2CCN(CC=C(C)C)C(CCO)C2)cc1 (centres undefined)	0.89	0.04
Cc1nn(C(C)C(=O)NCC2CCCO2)c(C)c1[N+](=O)[O-] (centres undefined)	0.06	0.04
CCCCCN(C(=O)CCC(=O)OCC(=O)N(C)C1CCCCC1)c1c(N)n(CCCC)c(=O)[nH]c1=O	2.3	-0.42
COc1cc(C(=O)NCCC(=O)NCc2ccc3c(c2)OCO3)cc(OC)c1OC	0.83	0.57
COc1ccccc1-n1c(C)c(C(=O)O)c2cc(OC)c3ccccc3c21	0.6	-1.6
Cc1ccc(-c2nc(N=Nc3ccc(O)cc3)n[nH]2)cc1	2.8	-0.04
COc1cc(/C=C/c2nc(-c3ccccc3O)n[nH]2)cc(OC)c1OC	1.2	-0.59
O=C(NCc1ccco1)c1cc2n(n1)C(C(F)(F)F)CC(c1ccc(Br)cc1)N2 (centres undefined)	0.02	2.1
O=c1oc2ccccc2c(N2CCCC2)c1CN1CCCC1	0.27	0.75
COc1cccc(NC(=O)N2CCCCCC2)c1	2.6	0.32

7 compounds out of the list above, sorted by their value in KCNQ2 enhance baseline, smallest number first:
SMILES	KCNQ2 enhance	KCNQ2 enhance baseline
CCC(=O)NC(c1ccc(N(C)C)cc1)c1c(O)ccc2ccccc12 (centres undefined)	5	-1
O=[N+]([O-])c1cccc(Nc2c([N+](=O)[O-])ccc3nonc23)c1	0.33	-0.13
COc1ccccc1NS(=O)(=O)c1cc(NC(=O)c2sccc2C)ccc1N1CCOCC1	0.08	-0.06
CS(=O)(=O)N1CCN(C(=O)Nc2ccccc2)CC1	0.31	0.55
CCOc1cc2c(C#N)c(N(CC)CC)nc(N)c2c(N)n1	1.1	0.67
C=CCSc1nc(C)c(CC(=C)C)c(=O)[nH]1	0.08	1.3
CCc1c(C)sc2nc(SCC(=O)Nc3cc(C)on3)n(CCOC)c(=O)c12	0.01	2.8

Continuation:
SMILES	KCNQ2 enhance	KCNQ2 enhance baseline
O=C(CSCC(=O)NC1CCCC1)Nc1ccccc1	0.93	-1.8
Cc1nc2ncnn2c(C)c1CCC(=O)Oc1ccccc1	0.04	-0.21
Cc1cc(C)cc(NC(=S)N2CCC(N(C)CC3CCCO3)CC2)c1 (centres undefined)	1.9	-0.35
CCC(C)NC(=O)C1c2ccccc2C(=O)N1Cc1cc(OC)ccc1OC (centres undefined)	0.08	-0.95
CCOc1cc(C)c(S(=O)(=O)Nc2ccc(F)cc2)cc1C	2.8	1.4
CCC(C)(C)N=C(NC#N)Nc1cccnc1	0.28	0.04
O=C(CC1CCCCC1)NCc1ccc(F)cc1	1.9	-1.1
CCOC(=O)c1c(CSc2ccc(C)cc2)oc2ccc(O)cc12	3.1	-0.12
COc1ccc2oc(=O)c(C(=O)N3CCc4ccccc43)cc2c1	2.1	-1.3
Cc1ccccc1OCC(O)Cn1c(NCCN(C)C)nc2c1c(=O)n(C)c(=O)n2C (centres undefined)	2	-0.51
CCOC(=O)Cc1c(C)nc2cc(-c3ccc(Cl)cc3)[nH]n2c1=O	1.4	-1.3
COc1ccc(N(CC(=O)N2CCN(c3ccccc3)CC2)S(=O)(=O)c2ccc(C)cc2)cc1	1.2	0.99
Clc1ccc(/C=N/Nc2ncnc3nc[nH]c23)cc1	0.11	0.71
Clc1ccc(CNc2ccc(CNc3ncn[nH]3)cc2)cc1	0.03	-1
C#CCOCCOCCOCCNc1nc(N2CCN(C(=O)[C@H](CCCCN)n3cc([C@@H](N)CC(C)C)nn3)CC2)nc(N2CCN(C(=O)[C@H](CCCCN)n3cc([C@@H](N)CC(C)C)nn3)CC2)n1	0.66	0.12
C=CCOc1ccc(C2NC(=O)c3ccccc3O2)cc1OCC (centres undefined)	1.8	-2.2
CCN1CCN(C(CNS(=O)(=O)c2ccccc2)c2cccnc2)CC1 (centres undefined)	0.38	-1.4
C=CCNc1nnnc2c1sc1nc(N3CCOCC3)c3c(c12)CCCC3	0.47	-1.9
C/C(=N/Nc1ccc(F)cc1)c1ccc(Cl)s1	0.51	-1.2
O=C(CCSc1ccc(Cl)cc1)N1CCN(c2ccc(O)cc2)CC1	0.46	-1.1
CC(C)c1ccc(CNC(=O)CCc2ccccc2)cc1	2.5	0.11
CCN1CCN(S(=O)(=O)c2ccc(C)c([N+](=O)[O-])c2)CC1	0.15	0.5
CCOC(=O)c1c(-c2ccc(C)o2)csc1NC(=O)CN1CCN(CC)CC1	0.44	-0.02
COc1ccccc1C(=O)N1CCN=C1SC	0.47	0.25
CCCCN(C(=O)COC(=O)COc1c(C)cc(C)cc1C)c1c(N)n(CCC)c(=O)[nH]c1=O	1.4	0.57
COc1cc(-n2c(C)nc3cc(C(=O)NCc4ccco4)ccc32)cc(OC)c1OC	0.52	0.94
Cc1ccc(C(=O)CN2C(=O)C(=O)N(Cc3ccccc3)C2=O)cc1	0.52	-0.03
Cc1nc(SCC(=O)N2CCOCC2)c2c(=O)n(C)c(=O)n(C)c2n1	1.1	-0.06
C=CCNC(=O)c1onc(CSc2nc3ccccc3[nH]2)c1C(=O)NCC=C	1.6	0.58
CCOc1ccc(CN2C(=O)CCC2(C)C(=O)NCc2cccnc2)cc1 (centres undefined)	0.75	2.2
O=C(NCCCn1ccnc1)/C(=C/c1ccco1)NC(=O)c1ccccc1	0.65	0.57
